Screens as filed in PubChem BioAssay.
GLA inh pH 4.5: blocks human alpha-galactosidase A at pH 4.5; purified enzyme, 4-MU-alpha-Gal fluorescence, pH 4.5; activity change, negative = inhibition, % at 105 µM; 230,000 tested, under 10 active; AID 1467; inconclusive = small, poorly fitted or top-dose-only inhibition, or a rising curve; inactive = flat fitted curve, though single readings scatter; no compound was filed as active;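 also: 0% = full activity with enzyme and -100% = basal without enzyme; dose as in the result columns while the protocol names 77 µM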
Target sequence (P06280 whole entry, looked up): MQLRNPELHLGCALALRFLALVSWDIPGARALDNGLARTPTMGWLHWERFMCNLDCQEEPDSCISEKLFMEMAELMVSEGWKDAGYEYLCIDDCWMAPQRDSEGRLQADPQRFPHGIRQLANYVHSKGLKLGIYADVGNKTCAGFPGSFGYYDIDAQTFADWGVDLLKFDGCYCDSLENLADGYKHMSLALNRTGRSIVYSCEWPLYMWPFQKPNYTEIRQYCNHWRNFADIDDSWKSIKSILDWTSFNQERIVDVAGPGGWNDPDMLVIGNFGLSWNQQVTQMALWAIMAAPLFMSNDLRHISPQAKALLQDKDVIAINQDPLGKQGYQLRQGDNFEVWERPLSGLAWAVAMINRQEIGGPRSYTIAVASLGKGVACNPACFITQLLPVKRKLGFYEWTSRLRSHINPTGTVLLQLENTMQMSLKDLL
Rango complex inh: prevents formation of the Rango-importin beta complex; AID 540263; Potency, µM (titrated, usually from 92.2 µM), without a hit: at the highest dose inhibition of complex formation; Rango CFP/YFP FRET sensor + importin beta, 45 min; 340,000 tested, 0.031% active; active = rising FRET ratio curve, often small or poorly fitted; inconclusive = mostly compound fluorescence or quenching in the first reads; inactive = flat curves in all reads;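 also: potency is read from the fitted curve at half-maximal effect; 0% = DMSO wells and 100% = buffer wells lacking importin beta; nearly all actives have a fitted effect of over 15% in size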
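Inhibition scored from the CFP 486 nm/YFP 530 nm FRET ratio 45 min after adding 0.125 microM importin beta to 50 nM Rango biosensor preincubated 5 min with compound (room temperature, PBS with DTT, Tween-20, BSA). No-importin wells as positive control.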
Rango release inh: inhibition of RanGTP-driven Rango-importin beta dissociation; Biochemical FRET Rango-importin beta, RanGTP-induced dissociation; O95149+P62826; Potency, µM (doses to about 46.1 µM), without a hit: at the top dose activity change, negative = inhibition; 340,000 tested, 0.071% active; active means falling FRET ratio curve, often poorly fitted, with flat reads before Ran was added; inconclusive means other falling curves, or compound fluorescence or quenching; inactive means flat or rising ratio curve;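 also: potency is read from the fitted curve at half-maximal effect; % of control where 0% means no effect; nearly all actives have a fitted effect of over 45% in size; -100% = wells without RanGTP and RCC1; the record marks most hits as doubtful in a second field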
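FRET read at 45 min, room temperature: inhibitors block the CFP/YFP signal rise when RanGTP (0.6 uM Ran, 2 mM GTP, 0.2 uM RCC1) frees Rango (0.1 uM) from importin beta (0.25 uM). Pre-read after 5 min compound exposure flags interference.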
miR-21 reporter: miR-21 reporter, rising signal. HeLa miR-21 FLuc reporter, luciferase, 48 h. Potency, µM (titrated, usually from 38.3 µM), for the others: top-dose reporter change, positive = more light. 340,000 tested, under 10 active. AID 2288; active = well fitted rising curve with a large enough effect; inconclusive = small, poorly fitted or top-dose-only effect; inactive = no such curve, though single readings can be large or run the other way;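 also: % of control where 0% means no effect; miR-21 action dims this reporter so a rising signal means less miR-21 action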
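Compounds were titrated across several concentrations (up to approximately 40 uM) and incubated 48 hours with HeLa miR-21-FLuc reporter cells (miR-21 target sequence downstream of FLuc, endogenous miR-21). Readout was firefly luciferase luminescence after lytic detection reagent.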
The depositor's hits bear a star; ? = inconclusive; / = not tested or not shown; & = joins results of further samples.

SMILES | GLA inh pH 4.5 | Rango complex inh | Rango release inh | miR-21 reporter
O=S(=O)(c1ccc2c(c1)OCCCO2)N1CCNCC1 | -0.7 | 0.7% | -2.0% | -5.7%
CCOc1ccccc1NC(=O)C(NCCc1ccc(OC)cc1)c1ccccc1 (configuration not stated) | / | -4.4% | -8.4% | -0.6%
C/C(=N\NC(=O)c1ccccc1[N+](=O)[O-])c1c(O)cc(C)oc1=O | 4.8 | 6.2% | -14.1% | -5.6%
CCOC(=O)CSc1nnc(C)n1N | 6.9 | -0.5% | 0.0% | 0.0%
C/C(=N/OCO/N=C(\C)c1ccccc1F)c1ccccc1F | -1.6 | -3.0% | -0.8% | -0.9%
O=C(Nc1ncccc1Cl)C(Sc1ccccc1)c1ccccc1 (configuration not stated) | 4.7 | -3.6% | -11.7% | -6.1%
CN1C(=O)/C(=C/c2ccccc2OCc2cccc(F)c2)N(C)C1=S | -9.2 | ? | ? | -1.2%
O=C(O)c1ccc(Cl)c(S(=O)(=O)Nc2ccccc2C(=O)Nc2ccc(Cl)cc2)c1 | / | ? | 18.6% | -27.9%
O=C(O)/C=C/C(=O)N(CC1CCCO1)C1CC(=O)N(c2c(Cl)cccc2Cl)C1=O (configuration not stated) | 1.3 | -0.1% | -13.2% | 2.8%
O=C(NC1CCCCC1)C(c1ccc(F)cc1)N(Cc1cccs1)C(=O)CN1C(=O)c2ccccc2S1(=O)=O (configuration not stated) | -4.1 | -3.0% | -10.7% | -9.0%
Cc1cc(-c2nnc(SCC(=O)c3ccc(Cl)cc3)o2)no1 | 3.8 | 3.8% | 12.3% | -0.2%
CCCCn1nnc(NC(=O)c2ccc(-c3cccc(Cl)c3)o2)n1 | -11.3 | 3.6% | -4.6% | -28.0%
COc1ccc2c(CC(=O)OCC(=O)N(C)c3c(N)n(Cc4ccccc4)c(=O)[nH]c3=O)coc2c1 | / | -1.2% | -6.3% | /
Cc1cc(=O)oc2c(CN3CCC(C)CC3)c(O)c(Cl)cc12 | ? | ? | ? | -3.3%
O=C1c2cccc3c(N4CCCCC4)ccc(c23)C(=O)N1c1ccc(O)cc1 | ? | ? | ? | -17.7%
CCOC(=O)CSc1nc(N)c(C#N)c(CC(C)C)c1C#N | 1.6 | -1.8% | 0.4% | -6.3%
O=C(Nc1nc(-c2ccc(Cl)s2)cs1)c1ccco1 | 0.3 | 3.4% | -5.5% | -32.1%
Cc1ccsc1/C=C1\CCC(C2CCCC2)C1=O (configuration not stated) | -4.9 | 4.9% | -14.1% | -69.4%
CCC(=O)OCc1c(C(F)(F)F)nn(C)c1Sc1ccc(Cl)cc1 | -5.7 | 0.7% | -7.1% | 9.9%
CCN(CCCNS(=O)(=O)c1ccc2c(c1)oc(=O)n2C)c1cccc(C)c1 | -5.2 | 0.9% | -10.0% | -2.5%
CCOc1cccc2sc(N(CCCN(C)C)C(=O)c3ccc(C(=O)c4ccccc4)cc3)nc12 | / | 0.5% | 16.5% | 6.0%
COCCCn1c(=O)c2ccccc2n2c(=S)[nH]nc12 | / | 3.4% | 9.3% | -0.5%
Oc1ccc(C=NC2CCCCC2)cc1 | 4.8 | -0.6% | -1.0% | -0.2%
CCCOc1cc(N)ccc1C(=O)OCCN(CC)CC | -5.5 | -2.2% | 14.1% | /
O=C1CSC(c2ccc([N+](=O)[O-])cc2)N1C1CCCCC1 (configuration not stated) | -3.2 | -0.8% | 14.2% | -0.1%
O=C(O)c1cccc(COc2ccc(CO)cc2Cl)c1 | 1.0 | 2.7% | -6.2% | -0.2%
N#CC(c1nc2ccccc2nc1N1CCCC1)S(=O)(=O)c1cccs1 (configuration not stated) | 4.5 | ? | ? | 0.2%
Cc1ccccc1C(NC(N)=O)c1ccccc1 (configuration not stated) | -1.5 | -3.9% | -11.6% | -6.7%
COc1ccc(CNc2oc(COc3ccccc3Cl)nc2C#N)cc1 | 6.0 | ? | ? | -12.0%
COc1ccc(CC(=O)Nc2cc(S(=O)(=O)N3CCOCC3)ccc2N2CCCC2)c(OC)c1 | / | 3.3% | 15.1% | /
CNC(=S)NNC(=O)c1oc2nc(-c3ccccc3)cc(C)c2c1N | -5.9 | ? | ? | 0.8%
O=C(OCCN1CCOCC1)C1(c2ccccc2)CCCCC1 | -2.9&-26.0 | -2.7% | -14.6% | /
Cc1nn(C)c(C(=O)Nc2c(C)nn(Cc3c(F)c(F)c(F)c(F)c3F)c2C)c1Br | / | -5.4% | 18.4% | -1.7%
CCc1nc(SCC(=O)NC2CCCC2)c2oc3ccccc3c2n1 | / | -3.3% | 1.9% | -1.4%
COc1cc2c(cc1OC)/C(=C/C(=O)c1ccc([N+](=O)[O-])c(C)c1)NCC2 | / | -0.4% | 2.7% | -12.7%
COCCn1c(Cc2ccccc2)nnc1SCc1nc2ccccc2c(=O)[nH]1 | 5.3 | -1.9% | -11.6% | 0.6%

Whole records as entered above:
CCOC(=O)CSc1nc(N)c(C#N)c(CC(C)C)c1C#N as listed: GLA inh pH 4.5: 1.6; Rango complex inh: -1.8%; Rango release inh: 0.4%; miR-21 reporter: -6.3%
C/C(=N/OCO/N=C(\C)c1ccccc1F)c1ccccc1F as listed: GLA inh pH 4.5: -1.6; Rango complex inh: -3.0%; Rango release inh: -0.8%; miR-21 reporter: -0.9%

More records follow.
SMILES | GLA inh pH 4.5 | Rango complex inh | Rango release inh | miR-21 reporter
O=C(CCC(=O)NNc1nc2ccccc2c2nc(-c3ccccc3)nn12)NCCCN1CCCC1=O | -4.0 | 0.3% | 11.3% | -2.9%
O=C(NCCCC1CCCC1)C1CCC(=O)N(Cc2cccc(C(F)(F)F)c2)C1 (configuration not stated) | / | 4.2% | 17.0% | 8.5%
C=CCNC(=S)N/N=C/c1ccc(-c2ccc(Br)cc2)o1 | -13.3 | -4.5% | 1.0% | -15.7%
CN(C)/C=N/S(=O)(=O)c1cccn1-c1ncc(C(F)(F)F)cc1Cl | 3.2 | -3.0% | 29.2% | -29.1%
Cc1cc2nc(CS(=O)(=O)c3ccccc3)cc(=O)n2[nH]1 | -7.9 | -6.5% | -2.5% | -1.4%
Cc1c(NS(=O)(=O)c2cccc(C(=O)NCc3cccc(Cl)c3)c2)c(=O)n(-c2ccccc2)n1C | / | -1.7% | 10.3% | /
N#Cc1ccc(N[C@@H]2CCN3C(=O)c4ccccc4[C@@H]3C[C@H]2O)cc1 | / | -0.2% | 8.7% | /
CC12CCC(C(=O)Nc3cc(F)ccc3F)(CC1=O)C2(C)C (configuration not stated) | 4.7 | -0.4% | -11.6% | -0.6%
COc1ccc(CCNC(=O)COC(=O)c2ccc(N3CCCC3=O)cc2)cc1 | -3.8 | 2.7% | -2.0% | -1.0%
Nc1nc(SCc2ccc3c(c2)OCO3)n[nH]1 | 5.9 | -1.7% | -15.8% | -20.4%
CCC(C)(C)NC(=O)C(c1ccc(C)cc1)N(CCN1CCOCC1)C(=O)CNC(=O)c1cccs1 (configuration not stated) | 2.1 | 9.7% | 17.9% | -5.9%
COCCNC(=O)C(c1ccc(O)cc1)N(Cc1cccs1)C(=O)CCC(=O)Nc1ccccn1 (configuration not stated) | / | -0.5% | 0.2% | -0.5%
Cc1cc(=O)[nH]c(N/N=C/c2c(F)c(F)c(F)c(F)c2F)n1 | / | -0.1% | -2.3% | 0.2%
CN1CCN(S(=O)(=O)c2cccc(C(=O)N(C)C(c3ccccc3)c3ccccc3)c2)CC1 | / | ? | -1.8% | /
O=C(O)CCn1[nH]c(=O)ccc1=O | -9.1 | 6.8% | 7.2% | 0.6%
CCCN1CCN(C(=O)CCc2nnc3ccc(N4CCN(c5cccc(OC)c5)CC4)nn23)CC1 | / | 1.0% | 7.1% | 9.3%
N#Cc1ccncc1S(=O)c1ccc(Cl)cc1 (configuration not stated) | / | -2.7% | -8.7% | -0.4%
CCOC(=O)C1(Cc2cccc(F)c2)CCN(C(=O)C2CCC2)CC1 | 2.0 | -1.9% | 15.2% | 2.1%
Cc1ccc(C(=O)NCc2ccco2)cc1S(=O)(=O)N1CCOCC1 | -6.5 | -6.1% | -7.0% | -3.0%
CCN1CCN(c2nc3c(c(=O)n(C)c(=O)n3C)n2CCSc2nccc(C)n2)CC1 | -3.2 | 1.9% | -7.9% | 0.0%
Cc1cc(Nc2ccccc2)nc(N2CCN(C(=O)c3ccc4c(c3)OCO4)CC2)n1 | / | 0.8% | 2.2% | /
Cc1c(NC(=O)CSc2nc3ccccc3s2)c(=O)n(-c2ccccc2)n1C | -0.5 | -1.2% | 1.5% | -2.1%
CCOc1ccc2ccccc2c1C1NC(=O)NC(C)=C1C(=O)OCCOC (configuration not stated) | / | 0.8% | -5.0% | 1.5%
Cc1cccc(C(=O)OC(C)CN2CCN(C)CC2)c1 (configuration not stated) | -21.1 | -0.9% | -10.2% | -34.6%
CCC(=O)Nc1nc2c(OC)ccc(OC)c2s1 | 2.9 | -2.2% | -7.6% | -5.1%
CC1=NCCN1S(=O)(=O)c1ccc(Br)c(C)c1 | -9.6 | -0.7% | 0.0% | -0.6%
O=S1(=O)CCOC[C@H](CC2CCCCC2)N1Cc1ccccc1 | / | -0.3% | 13.2% | -2.7%
Cc1ccc(S(=O)(=O)N(Cc2ccc(Cl)cc2)c2ccccc2C(=O)NCc2ccco2)cc1 | -0.1 | -0.3% | 15.4% | 16.1%
COC(=O)c1cc(Br)ccc1NC(=O)CCNC(=O)c1ccco1 | / | -2.1% | 8.7% | -4.1%
COc1ccc(/C=N/n2c(-c3n[nH]c4c3CCC4)n[nH]c2=S)cc1 | 0.9 | -1.2% | -4.1% | -8.6%
O=C(CSc1nnc(CNc2ccccc2)o1)c1ccc2c(c1)OCCO2 | -3.6 | -4.1% | 4.8% | -4.1%
CCOC(=O)c1cc(-c2ccc(N)cc2)sc1N | -6.5 | -0.9% | -4.1% | -36.6%
CCc1nnc2c(NCCc3ccccc3)nc3ccccc3n12 | / | 11.5% | -4.1% | 3.6%
CC1CCCCC1NC(=O)c1ccc2c(c1)[nH]c(=O)n2C1CCCC1 (configuration not stated) | 1.4 | 2.4% | 1.0% | -8.4%
CS(=O)(=O)N1CCN(c2ccc([N+](=O)[O-])cc2F)CC1 | -2.9 | 2.3% | 2.4% | 1.0%
O=C(NC1CC1)c1cccc(NC(=O)c2cn3ccccc3n2)c1 | / | ? | ? | /
COc1ccc(-c2oc3ccc(-c4cc(OC)c(OC)c(OC)c4)cc3c2C#Cc2ccsc2)cc1 | / | -3.6% | 3.3% | -2.9%
COc1ccc(C(=O)NN2C(=O)C3C4C=CC(O4)C3C2=O)cc1 (configuration not stated) | -23.3 | 2.1% | 1.7% | -6.5%
CN1CCc2c(sc3nc(NN)n(-c4ccc(Cl)cc4)c(=O)c23)C1 | / | ? | -17.3% | -18.4%
Nc1cc2c(cc1C(=O)c1ccccc1F)OCCO2 | -6.3 | -2.6% | -3.7% | -15.5%
O=c1[nH]c2c(c(=O)n1-c1ccccc1)CCO2 | / | 1.0% | 28.5% | /
Cc1ccc(OCc2cc(C(=O)N(C)CCc3nc4ccccc4[nH]3)no2)cc1C | / | -1.5% | -2.3% | 15.4%
Cc1ccc2nc(/C(C#N)=C/c3cn[nH]c3-c3ccc(F)cc3)[nH]c2c1 | -5.6 | ? | ? | 28.5%
O=C(c1ccco1)N1CCN(C(c2ccc(Cl)cc2)c2nnnn2Cc2ccccc2)CC1 (configuration not stated) | -2.4 | 0.7% | 6.8% | 10.2%
CC(NS(C)(=O)=O)C(c1cccs1)N1CCN(c2ccccc2)CC1 (configuration not stated) | 2.4 | 0.1% | 10.4% | -9.2%
Cc1ccc(NC(=O)CSc2ncccc2C(=O)Oc2cccc([N+](=O)[O-])c2)cc1Cl | -1.9 | 2.1% | 16.5% | -43.5%
O=C(O)CC(Cc1ccc(Br)cc1)C(=O)Nc1ccccc1 (configuration not stated) | / | 1.5% | 2.0% | 3.3%

An excerpt; rates above refer to the full screens.
